PABP polyA inh: blocks human PABP binding to poly(A) RNA; 1% of 290,000 active; fluorescence polarization; P11940; inhibition, % at 35 µM;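 active means 50% or more with normal probe brightness, or confirmed in later tests; inconclusive means above 50% with abnormal brightness, or retests that disagree; inactive means below 50% or failed in later tests; about a fifth of its hits are not listed in these tables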;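 further: calls also rest on retests at 20 µM and on dose response follow-up; controls were probe without protein and protein plus probe with vehicle; some compounds called inactive have numbers as strong as hits; many hits fall short of the cut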
Target sequence (P11940 whole entry, looked up): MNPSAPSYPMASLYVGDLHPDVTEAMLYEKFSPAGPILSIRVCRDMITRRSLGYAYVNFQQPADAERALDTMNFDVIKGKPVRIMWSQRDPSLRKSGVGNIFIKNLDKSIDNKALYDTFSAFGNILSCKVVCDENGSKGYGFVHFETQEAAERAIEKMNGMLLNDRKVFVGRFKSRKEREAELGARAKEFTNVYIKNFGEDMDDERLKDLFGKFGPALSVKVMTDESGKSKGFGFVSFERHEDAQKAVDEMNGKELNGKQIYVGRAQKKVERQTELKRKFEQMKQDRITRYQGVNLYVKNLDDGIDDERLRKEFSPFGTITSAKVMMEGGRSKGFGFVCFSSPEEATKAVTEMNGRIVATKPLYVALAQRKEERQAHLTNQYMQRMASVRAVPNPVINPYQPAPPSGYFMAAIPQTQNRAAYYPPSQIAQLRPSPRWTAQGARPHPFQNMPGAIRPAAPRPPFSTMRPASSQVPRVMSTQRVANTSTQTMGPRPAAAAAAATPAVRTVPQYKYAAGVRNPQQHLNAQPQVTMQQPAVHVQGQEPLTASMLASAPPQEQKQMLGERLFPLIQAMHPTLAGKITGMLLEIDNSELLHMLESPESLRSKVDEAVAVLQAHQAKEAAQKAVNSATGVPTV
CSC inhib: cancer stem cell inhibition; cancer stem cell-like cells viability, luminescence; inhibition, % at 7.5 µM; 1.1% of 300,000 active;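 active means mean at 75% or more and at least half the replicates too; inconclusive means mean and replicates disagree; tested in HMLE shEcad cells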;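 further: 0% = median of negative and 100% = median of positive control wells; the first replicate is given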
Yeast UUG start: alters start codon recognition fidelity in yeast | activity score, % at 18.7 µM | S. cerevisiae UUG-firefly luciferase reporter, luminescence/redox ratio | AID 602363 | 0.13% of 350,000 active;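 active means replicate mean at a twofold rise or more, about +100% in these data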;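 further: firefly luciferase made from a UUG start codon reports start codon fidelity; reporter light over untreated wells divided by growth signal over untreated wells; some hits fall short of that in this replicate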
Rce1 inhib: inhibitors of yeast Ras-converting enzyme; Q03530; yeast membranes, quenched prenylated peptide cleavage fluorescence; calls only; 0.27% of 290,000 active;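 active means fall in fluorescence gain of 50% or more versus controls, with final raw signal at or below 3038400; inconclusive means same 50% fall but final raw signal above 3038400; inactive means fall in fluorescence gain under 50%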;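 further: plate controls were neutral control wells for no effect and wells lacking membranes for full effect; tested at 10 µM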
HIV Env fusion: blocks HIV Env-driven cell-cell fusion; HeLa-JRFL Env/CEM21 cell fusion, luciferase; inhibition, % at 12.3 µM; 1.1% of 360,000 active; AID 651610;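 active means mean replicate inhibition score of at least 50 and every replicate individually at or above 50; inconclusive means only one of the two criteria met; inactive means mean below 50 and not all replicates reaching 50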;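 further: 0% = plate neutral controls and 100% = maraviroc near 300 nM; one replicate is shown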
MT1-MMP act inh: MT1-MMP (human) activation inhibition | P50281 | HT1080 RFP-PRO-GFP cells, GFP/RFP ratio fluorescence, overnight; percent of plate control window, DMSO zero | GFP/RFP ratio change, % at 20 µM | 0.061% of 360,000 active | AID 651647;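 active means GFP/RFP ratio change of at least 30% with cell ATP level not reduced by more than half and red fluorescence within 50% of control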; further: strong numbers were not always called active
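Material – HT1080 RFP-PRO-GFP cells · Control set – DMSO wells and RFP-L50D-GFP cells · Incubation – overnight cell settling, then overnight compound exposure, 37 °C, 5% CO2 · Compound dosing – single-point 20 µM compound, 1% DMSO · Read-out – GFP/RFP fluorescence ratio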
eIF4H FP inh: inhibitors of RNA binding by human eIF4H. eIF4H fluorescence polarization binding assay. inhibition, % at 35 µM. 0.94% of 290,000 active;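 active means 50% or more with normal probe brightness, or confirmed in later tests; inconclusive means above 50% with abnormal brightness, or retests that disagree; inactive means below 50% or failed in later tests; about a fifth of its hits are not listed in these tables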;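 further: calls also rest on retests at 20 µM and on dose response follow-up; 0% = protein and probe with vehicle and 100% = probe without protein; strong numbers were not always called active; many hits fall short of the cut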
eIF4H FP inh retest: second read-out of eIF4H FP inh, no call of its own (marks repeat the call); inhibition, %; compound at 20 µM; confirmation average;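 mean of two retest wells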
PABP polyA inh retest: further read-out of PABP polyA inh, marked with its call; inhibition, %; compound at 20 µM; confirmation repeats;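 mean of two retest wells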
MT1-MMP act inh RFP: recorded beside MT1-MMP act inh, whose call it bears; RFP signal change, %; measured here: RFP expression control read;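 0 = vehicle wells; hits needed this value within 50% of zero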
* marks the source's active call; other numbers are inactive results; i = inactive; ? = inconclusive; / = not tested or not shown; & = joins results of further samples; [ ] = dose if it differs, or a comment.

SMILES	PABP polyA inh	CSC inhib	Yeast UUG start	Rce1 inhib	HIV Env fusion	MT1-MMP act inh	MT1-MMP act inh RFP	eIF4H FP inh	others
CC(=O)c1cccc(N(C(=O)Cn2nnc3ccccc32)C(C(=O)NCc2ccccc2)c2ccccn2)c1 (stereo unspecified)	-4	-6	-2	i	-38	-3	4	3
Cc1ccccc1-c1cc(C(=O)n2cccn2)c2cc(Cl)ccc2n1	0	19	-11	i	-20	11	11	3
COC(=O)CCC(=O)OC1(C)C(=O)C=C2C=C(C3CC3)N(CCCOC(C)C)C=C2C1=O (stereo unspecified)	22	23	6	i	/	-1	4	60	eIF4H FP inh retest=12;PABP polyA inh retest=16
COc1ccc2[nH]c(=O)c(C(c3nnnn3CC3CCCO3)N3CCc4ccccc4C3)cc2c1 (stereo unspecified)	23	-6	-16	i	28	-1	1	2
COc1ccc(C(=O)NC(=S)Nc2ccc(S(=O)(=O)Nc3cc(OC)nc(OC)n3)cc2)cc1	14	-11	-14	i	14	3	2	-11
COc1cc(NC(=O)c2cc(Br)cc(C)c2OC)ccc1NC(=O)C(C)C	15	8	-4	i	8	4	-3	11
Cc1ccnc2nc(C(=O)NCc3ccccc3)nn12	0	/	/	i	-6	-1	3	-9
CCCOc1ccccc1N/C(N)=N/c1nc(C)cc(C)n1	-3	-2	/	/	9	-2	0	6
CCOC(=O)C1CCCN(C(=O)C2CCN(S(=O)(=O)c3ccc4ccccc4c3)CC2)C1 (stereo unspecified)	-2	-6	4	i	15	5	-5	-5
Cc1cc(C)nc(NNS(=O)(=O)c2ccc(F)c(Cl)c2)n1	/	-3	-13	i	/	2	5	/
COc1ccc(OC)c(CC(=O)N2CCc3cc(OC)c(OC)cc3C2)c1	2	-3	-9	i	-3	-7	-2	0
CCNC(=O)NCCNC(=O)c1cc(OCC(F)(F)F)ccc1OCC(F)(F)F	5	/	-12	i	-2	-3	0	-3
COCc1cc(=O)[nH]c(/N=C(\N)Nc2cccc(Cl)c2)n1	-12	2	/	i	-13	-4	-6	-7
CCc1ccccc1NC(=O)CN(C)C(=O)c1cc(C2CC2)nn1-c1ccccc1	/	4	1	/	/	4	-3	/
O=S(=O)(O)c1ccc(N2N=C(c3ccccc3)CC2c2ccccc2)cc1 (stereo unspecified)	-2	-7	/	?	-6	0	7	12
CSc1nc(NCC(C)C)nc(N2CCOCC2)n1	4	-1	-10	i	-16	3	1	10
Cc1ccc(C(=O)Nc2cccnc2)cc1S(=O)(=O)N1CCCCCC1	5	1	-13	i	-14	8	-6	-5
C=CCN(c1ccccc1)S(=O)(=O)c1cccc(C(=O)Nc2nc3ccccc3[nH]2)c1	-6	21	-17	i	-9	6	-7	0
CN1Cc2c(N3CCOCC3)nc3sc(C(=O)c4ccc(Br)cc4)c(N)c3c2CC1(C)C	-1	102*	-9	i	11	-5	-8	-16
CC1COc2ccccc2N1C(=O)c1ccc(Cl)nc1 (stereo unspecified)	2	-17	/	i	22	-3	1	-4
CCNC(=O)C1CCCN(C(=O)c2cc(OC)c(OC)c(OC)c2)CC1 (stereo unspecified)	/	/	-24	/	1	-1	0	/
COc1ccccc1N1C(=O)C2C3C=CC(C3)C2C1=O (stereo unspecified)	4	-3	-11	i	/	4	4	2
C/C(N)=C(/C#N)C(=O)COc1ncnc2ccc(Br)cc12	1	5	-15	i	-120	0	5	-9
COc1cc(CC(=O)OCC(=O)N2CC(C)CC(C)C2)cc(OC)c1OC (stereo unspecified)	-4	2	-6	i	15	2	2	-10
Cc1ccc2c(c1)nnn2C1CCN(S(=O)(=O)c2ccc(C(=O)O)cc2)CC1	2	-19	/	i	-1	-4	-1	8
O=C(CNC(=O)c1ccc(Cl)cc1)OCC(=O)c1ccc2c(c1)OCCO2	1	2	-11	/	-69	15	4	-15
CC1(C(=O)O)CCCN1C(=O)c1cccc(C(F)(F)F)c1 (stereo unspecified)	/	/	-9	/	9	1	6	/
CC1(C)Cc2c(sc3nc(N/N=C/c4ccccc4)[nH]c(=O)c23)CO1	10	0	/	i	-19	7	-11	-18
Cc1ccc(N=C2CCCN2Cc2ccccc2)c(C#N)c1	-9	2	-8	i	/	1	-3	-3
O=C(CNS(=O)(=O)c1ccc(Br)s1)NC1CCCc2ccccc21 (stereo unspecified)	-2	1	/	i	-10	2	8	-2
COc1ccc2c(-c3ccccc3)cc(=O)[nH]c2c1	-1	2	-7	i	/	5	-2	-4
CN1CCN(C2=C(Cl)C(=O)N(C3CCCCC3)C2=O)CC1	52	5	7	i	?	1	1	44	eIF4H FP inh retest=28;PABP polyA inh retest=37
O=C(COC(=O)c1cccnc1Cl)Nc1ccc(N2CCOCC2)cc1	/	/	-27	/	-7	1	3	/
CC(C)(C)n1nc2c(c1NC(=O)c1ccc(S(=O)(=O)N3CCCC3)cc1)CSC2	1	-3	-26	i	/	-4	2	4
CCOc1ccc(NC(=O)Cc2cccc3ccccc23)c([N+](=O)[O-])c1	5	4	/	i	15	-5	-7	-4
Cc1ccc(S(=O)(=O)N2CCNC(=O)CC2)cc1	-2	-17	/	i	1	-1	7	3
C=CCOC(=O)C1=C[C@H](c2ccc3c(c2)OCO3)C[C@H](OCCCCO)O1	/	-2	11	i	1	-2	-1	/
Cc1cc(N2CCOCC2)nc2ccccc12	-5	-3	-4	i	/	2	2	5
CC(Oc1ccc(F)cc1)C(=O)N(CCC1=CCCCC1)c1c(N)n(Cc2ccccc2)c(=O)[nH]c1=O (stereo unspecified)	/	39	/	i	-77	-12	-9	/
CC1(C(=O)Nc2cccc3cccnc23)CCN1Cc1csc2ccccc12 (stereo unspecified)	/	/	-13	/	49	5	0	/
O=C(COc1ccccc1)N1CCN(C(=O)COc2ccccc2)CC1	3	-20	-16	i	/	0	4	-14
Cc1ccc(CNC(=O)c2cc3c(=O)n4ccccc4nc3n(Cc3ccco3)c2=N)cc1	41*	70	-2	i	/	-6	-8	56*	eIF4H FP inh retest=63*;PABP polyA inh retest=59*
CCN(CC)S(=O)(=O)c1ccc(N2CCN(C)CC2)c(NC(=O)CN2C(=O)NC3(CCCCC3)C2=O)c1	/	/	-12	/	-3	-4	0	/
CC1CCCC(C)N1S(=O)(=O)c1ccc(NC(=O)CCn2cnc3ccccc3c2=O)cc1 (stereo unspecified)	-8	3	-16	i	-50	-1	-1	-17
O=C(O)c1ccc(CNCc2ccc(F)cc2)cc1	-7	-17	/	i	2	-3	5	-4
O=C(NCc1ccc(F)cc1)c1ccncc1	5	5	-12	i	-4	1	2	-8
CCCN(CC(=O)Nc1ccccc1OC)C(=O)c1ccc(S(=O)(=O)NCc2ccco2)cc1	/	-7	-10	/	-11	2	-4	/
CCOC(=O)C1CCCN(C(=O)c2ccccc2Oc2ccccc2)C1 (stereo unspecified)	-2	-7	-11	i	-47	3	3	1
COc1ccc(-c2ccnc3nc(-n4cccc4)nn23)cc1	0	11	/	i	-19	1	0	-9
O=C(CCNS(=O)(=O)c1ccccc1C(F)(F)F)NCCCc1ccccc1	/	/	-20	/	1	-1	0	/

Going on with the list.
SMILES	PABP polyA inh	CSC inhib	Yeast UUG start	Rce1 inhib	HIV Env fusion	MT1-MMP act inh	MT1-MMP act inh RFP	eIF4H FP inh	others
Cn1c(=O)c2c3c(sc2n2c(SCc4ccccc4)nnc12)CCCC3	18	-12	/	i	/	/	/	0
O=C(O)c1cc(NS(=O)(=O)c2ccc3ccccc3c2)ccc1O	8	-20	-14	i	-1	2	4	-3
COc1ccc(-c2cn3cc(Br)cnc3n2)cc1	9	29	-17	i	-55	-1	-1	15
CC1CN(C(=O)CCC(=O)N2CCOCC2)c2ccccc2O1 (stereo unspecified)	-13	-22	-8	i	-2	-9	-2	-2
S=C(NCCN1CCOCC1)NC1CCCCC1	3	-8	/	i	-28	3	6	-6
Cc1ccc(C(=O)NC(=S)Nc2ccccc2N2CCOCC2)cc1C	-19	61	-7	i	/	-4	-2	0
O=C(NN1C(=O)c2cc(Br)ccc2NC1c1ccccc1Cl)c1ccncc1 (stereo unspecified)	18	-7	/	i	26	9	2	6
CC(C)CN(C)C(=O)CC1C(=O)NCCN1C (stereo unspecified)	-4	-3	19	i	/	4	4	0
COc1cccc(-c2nn(-c3ccccc3)cc2C(=O)O)c1	9	/	-2	i	/	2	2	22
CCN(C#N)c1nc(NC(C)C)nc(NC(C)(C)C)n1	7	7	/	i	?	5	-2	-4
COc1cccc(CCc2nnc(CCC(=O)N3CCN(Cc4ccccn4)CC3)o2)c1	3	7	/	i	-7	1	4	6
CCCCCSc1ncccc1C(=O)O	-1	-4	-5	i	-9	3	-1	-4
CCc1ccc(C(=O)NNC(=O)C2CCN(c3ncnc4sc(C)c(C)c34)CC2)cc1	/	0	/	i	12	28	-14	/
CC(C)N(C#N)c1nc(N2CCOCC2)nc(N2CCOCC2)n1	-3	4	-9	i	28	2	15	2
CN(C)S(=O)(=O)c1ccc(NC(=O)c2c(F)cccc2Cl)cc1	0	-3	-5	i	-12	4	0	-6
Nc1nc2ccccc2n1/N=C/c1cccnc1	/	/	-16	i	9	-4	-3	/
CSCCC(NC(=O)COc1ccccc1)C(=O)N1CCCC(C)C1 (stereo unspecified)	1	-4	-8	i	-12	0	4	1
Cc1noc(C)c1NC(=O)N(C)C[C@H]1Oc2ccc(NC(=O)C3CCCCC3)cc2C(=O)N([C@H](C)CO)C[C@@H]1C	/	-27	-2&-1	/	19[16.7 µM]	7	7	/
CN(Cc1ccc(Cl)cc1)C(=O)c1ccccc1SCC(=O)N1CCCC1	/	/	7	/	20	-2	-1	/
COC(=O)CSc1ccc(-c2nc3ccc(C)cc3[nH]2)cn1	-1	-5	-9	i	/	7	5	5
COc1cccc(N2CCN(C(=O)c3ccc(CS(=O)c4ccc(C)cc4)o3)CC2)c1 (stereo unspecified)	0	56	-14	i	-45	4	-7	-11
CCCCN(C(=O)C(CCSC)N1C(=O)c2ccccc2C1=O)c1c(N)n(CCC)c(=O)[nH]c1=O (stereo unspecified)	/	/	-18	/	7	-2	0	/
Cc1csc(CNc2ncnc3ccc(-c4ccccc4Cl)cc23)c1	/	/	-4	/	?	-3	-7	/
Cc1ccccc1NC(=O)C(C)OC(=O)C1CC(=O)N(Cc2ccco2)C1 (stereo unspecified)	/	-3	-17	/	0	3	3	/
Cc1ccnc(NC(=O)CCC(=O)N(CC(=O)NCCc2ccccc2)c2ccccc2F)c1	6	-10	-9	i	29	-3	-1	6
CC(Oc1cc2oc(=O)c3c(c2cc1Cl)CCC3)C(=O)NCC1CCC(C(=O)O)CC1 (stereo unspecified)	1	0	15	i	3	-2	-1	1
CCc1cccc(C)c1NC(=S)NCc1ccc2[nH]c(C)cc2c1	-2	-1	18	i	-11	18	20	-1

A draw from above in order of count of non-hydrogen atoms, low to high:
SMILES	PABP polyA inh	CSC inhib	Yeast UUG start	Rce1 inhib	HIV Env fusion	MT1-MMP act inh	MT1-MMP act inh RFP	eIF4H FP inh	others
Cc1csc(CNc2ncnc3ccc(-c4ccccc4Cl)cc23)c1	/	/	-4	/	?	-3	-7	/
Cc1ccccc1NC(=O)C(C)OC(=O)C1CC(=O)N(Cc2ccco2)C1 (stereo unspecified)	/	-3	-17	/	0	3	3	/
COc1cccc(N2CCN(C(=O)c3ccc(CS(=O)c4ccc(C)cc4)o3)CC2)c1 (stereo unspecified)	0	56	-14	i	-45	4	-7	-11
CCCCN(C(=O)C(CCSC)N1C(=O)c2ccccc2C1=O)c1c(N)n(CCC)c(=O)[nH]c1=O (stereo unspecified)	/	/	-18	/	7	-2	0	/

Bioassay records: PubChem, several laboratories

Random draw from the library; 3% or so of the library scored in one or more.
